ugtP null kill: growth inhibition of ugtP-null S. aureus, primary screen, RN4220 ugtP deletion, OD600; 16 h; some inactives read as strong as hits; AID 1259309, 2017; growth inhibition, % (concentration not given with the values); actives 0.54% (n = 330,000);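 active = z-score under -3 and OD600 up to 0.15 on both plates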;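 also: plate controls were untreated wells for no effect and antibiotic for full effect; wells of about 80 µL received 100 nL stock; the first replicate is given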
BJeLR viability: MLPCN primary cell-based screen for lethality selective to Ras in HRASV12 cells. BJeLR (HRASV12) viability, CellTiter-Glo ATP luminescence, 48 h; reference of the scale not given here. inhibition, % (no concentration beside the values). actives 0.17% (n = 300,000). AID 1554, 2009;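 active = replicate mean above 50%; inconclusive = above 50% but judged a plate artefact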;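 also: 50 nL library stock added to about 25 µL; numbers are from one replicate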
Sa RN4220 lethal: growth inhibition of S. aureus RN4220, primary screen, OD600. actives 0.33% (n = 330,000). 16 h. AID 1259311, 2017. inhibition, % (no concentration beside the values);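 active = z-score of -3 or lower and OD600 up to 0.18 on both plates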;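 also: plate controls were untreated cells for no effect and reference antibiotic for full effect; stock transfer was 100 nL into about 80 µL; one replicate is shown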
Autofluor counter: counter-screen for toxin protease inhibitors: compound fluorescence. AID 624483. actives 3.1% (n = 360,000). compound autofluorescence counterscreen, microsphere flow cytometry; stronger effect = higher value. fluorescence intensity (test concentration not listed);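 active = at least 3 SD above the mean of all compounds, about 16000 in these data; inconclusive = too few beads counted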;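 also: 100 nL of 1 mM stock went into each well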
PrP 5UTR inh: inhibition of PrP 5' UTR reporter expression. inhibition, % (concentration not given with the values). actives 0.35% (n = 340,000). cell-based PrP 5' UTR mRNA reporter, plate reader;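 active = every replicate at 50% or more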;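 also: 0 = median of the neutral control wells; tested in H4 reporter cells; numbers are from one replicate; inactives centre near -14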
Mtb hypoxia inh: PubChem AID 1159583; M. tuberculosis hypoxia-regulated fluorescent reporter, fluorescence; fluorescence inhibition, % (test concentration not listed); actives 0.1% (n = 300,000);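 active = 35 to 45% if threefold the growth effect, above 45% if 1.5-fold the growth effect; inactive = the rest, general growth blockers included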;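 also: wells of about 50 µL received 100 nL stock; 0% = vehicle wells and 100% = reference inhibitor wells; whole bacteria with a GFP reporter of the hypoxia response; strong numbers were not always called active; many hits fall short of the cut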
Mtb hypoxia inh growth: further read-out of Mtb hypoxia inh, marked with its call; growth inhibition, %; measured here: M. tuberculosis growth (absorbance);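 0% = vehicle and 100% = reference antibiotic; read after six days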
* marks the source's active call; other numbers are inactive results; ? = inconclusive; · = not tested or not shown; & = joins results of further samples.

SMILES	ugtP null kill	BJeLR viability	Sa RN4220 lethal	Autofluor counter	PrP 5UTR inh	Mtb hypoxia inh	Mtb hypoxia inh growth
Cc1ccc2nc(N(CCCN(C)C)C(=O)c3ccc4ncsc4c3)sc2c1	-6	-1	0.3	5802	-38	12	21
COc1ccccc1OCC(=O)Nc1cc(S(=O)(=O)N2CCOCC2)ccc1N1CCCCC1	-2	·	7.6	3783	-13	-2	2
COC(=O)c1ccc2[nH]c(C(C)(C)O)c(C)c2c1	·	-13	·	4108	-25	·	·
Cc1cc(C)cc(NC(=S)NN)c1	·	5	·	3234	-12	·	·
Cc1nn(C)cc1CNCc1ccc(OCC(O)CN(C)Cc2ccccc2)cc1 (configuration not stated)	-6	0	2.3	2567	-16	9	7
O=S(=O)(Nc1ccccc1N1CCOCC1)c1cccs1	3	·	8.5	5331	-7	6	3
O=C(/C=C/c1ccc2c(c1)OCCO2)c1ccc(O)cc1	4	4	8.9	5689	-68	-7	0
CN(C(=O)c1cccc(NC(=O)Cc2cccc(NC(=O)C3CCCN(C(=O)c4ccccc4)C3)c2)c1)C1CCC1 (configuration not stated)	3	·	2.5	3784	-14	-1	-1
CCOc1ccc2[nH]c3nc(SCC(=O)NCC4CCCO4)nnc3c2c1 (configuration not stated)	1	-4	2.2	4025	-17	11	-5
N#CC1=C(N)OC2=C(C(=O)CCC2)C1c1ccoc1 (configuration not stated)	8	1	8.0	3624	-15	6	2
COc1ccccc1N1CCN(N=Cc2ccc(C(=O)O)cc2)CC1	1	·	-1.2	·	·	14	12
CN(Cc1nc2ccccc2c(=O)[nH]1)C(=O)c1ccc(NC(=O)CSc2nnnn2C)cc1	5	·	1.2	3023	-4	5	2
CCOCCCn1c(SCc2nc3ccccc3s2)nc2ccccc2c1=O	-5	0	0.1	3006	-38	4	-2
COc1ccc(C(=O)N/C(=C\c2cccc3ccccc23)C(=O)NCCc2c[nH]c3ccccc23)cc1OC	-2	-7	-6.1	4911	-7	·	·
CCCCNC(=S)NCCN1CCN(C(=S)NCCCC)CC1	1	5	0.4	4613	-28	15	2
CCN(CC)CCn1c(C)nc2c(sc3nc4c(cc32)COC(C)(C)C4)c1=O	0	2	-0.8	·	·	-10	7
CCn1cc(C(=O)OCC(=O)NCc2ccccc2Cl)c(=O)c2ccc(C)nc21	1	-3	4.0	4875	-10	-4	3
Cc1ccc(C(=O)Nc2nnc(-c3cccs3)s2)cc1C	-2	-11	-6.0	3688	-92	9	10
Cc1cc(C(=O)Nc2ccc(CC(=O)O)cc2)c(C)o1	4	-11	8.3	3046	4	2	-4
Cc1cccc(N2CCN(S(=O)(=O)c3ccc4c(c3)CCCN4C(=O)C3CCC3)CC2)c1C	1	3	-1.2	4452	-22	-3	-9
O=C(c1ccco1)c1cn(CC(=O)N2CCCc3ccccc32)c2ccccc12	-15	0	-1.3	2958	-10	6	7
O=C(CN1CC(=O)Oc2ccccc21)OCC(=O)c1ccc(Br)cc1	-2	-6	4.0	3738	-5	·	·
Cc1ccc(S(=O)(=O)/N=S(/c2ccccc2)C(C)C)cc1 (configuration not stated)	-1	-15	1.4	3448	-70	2	3
O=C(CN1C(=O)S/C(=C\c2ccccc2F)C1=O)NCCCn1ccnc1	3	3	3.7	5407	-8	-2	1
C(=N\NC1=Nc2cccc3cccc1c23)/c1ccccn1	·	-1	·	3855	-100	·	·
O=C1CCCC(=NNC(=O)NC2CCCCC2)C1	2	·	10	·	·	9	5
Cn1cc(C(=O)NCc2ccc(F)cc2)c(=O)c2cc(S(=O)(=O)N3CCCCC3)ccc21	·	8	·	1998	-1	·	·
CCc1nc2ccc(C(=O)N3CCN(c4ccc(Cl)cc4)CC3)cc2nc1CC	-5	-8	2.4	5719	-21	7	3
CCOC(=O)C1=C(COC(=O)C2CC(=O)N(c3ccc(CC)cc3)C2)NC(=O)NC1C (configuration not stated)	1	·	4.1	3521	-2	-3	0
CCN(CC)S(=O)(=O)c1cc(C(=O)Nc2cc(S(=O)(=O)N3CCOCC3)ccc2N2CCN(C)CC2)ccc1C	2	·	2.2	5318	·	3	3
C1=C(C(c2nnnn2C2CCCCC2)N2CCCCC2)COc2ccccc21 (configuration not stated)	6	-1	1.1	5230	-8	11	12
O=C(COc1ccccc1Cl)N1CCN(c2ccccn2)CC1	2	-13	-1.1	?	-6	3	7
CN1CCN(C(=O)C2=C[C@H](c3csc4ccccc34)C[C@H](OCCCCO)O2)CC1	·	-8	·	4283	5	·	·
COc1cc(C(C)=O)ccc1OCC(O)CN1CCN(c2c(C)cccc2C)CC1 (configuration not stated)	·	-5	·	3528	-30	·	·
Cc1ccc(Nc2nnc(SCC(=O)Nc3cccc(S(=O)(=O)NC4=NCCCCC4)c3)s2)cc1	-2	4	5.3	1962	-16	-3	5
Nc1ccn(Cc2ccccc2)n1	4	0	12	3488	0	0	-4
CCCCOc1ccc(NC(=O)CCSc2nccn2C)cc1	8	-16	9.7	4302	-19	14	8
CCCCC(C)=NNC(=O)CN(c1ccc(Br)cc1)S(=O)(=O)c1ccccc1	-1	·	4.0	·	·	8	5
CC(=N\Nc1ccc(Cl)cc1)/C(=N/O)C(=O)Nc1ccccc1	·	10	·	3551	-13	·	·
Cc1ccc(-c2nc3ccccc3o2)cc1NC(=S)NC(=O)c1cc2ccccc2o1	-9	1	1.6	2212	-33	-10	-5
COc1cccc(CCNC(=O)COc2cccc3c2OC(C)(C)C3)c1	2	-1	6.8	5319	-38	10	10
O=C(COC(=O)c1cc(=O)[nH]c2ccccc12)NCCc1ccccc1	3	·	-0.3	4234	-30	22	2
COC(CNC(=O)c1c[nH]c2ccc(S(=O)(=O)N3CCC4(CC3)OCCO4)cc2c1=O)OC	-7	7	6.7	11334	-19	9	2
Cc1nc(N2CCN(c3ccccc3)CC2)[nH]c(=O)c1Cc1cccc2ccccc12	-17	-1	-0.9	·	·	3	-1
C=CC(C)(C)c1cc2cc3ccoc3cc2oc1=O	23	1	21	2844	-25	6	13
O=C(NCC1CCN(Cc2cccc(Cl)c2)CC1)Nc1ccc(Cl)cc1	-25	-2	-4.9	3931	-2	-10	3
COc1ccc(/C=C/CN2CCN(Cc3ccc(C)cc3)C(CCO)C2)cc1 (configuration not stated)	2	-2	1.2	5286	-27	10	1
O=C(C[n+]1ccccc1)Nc1ccccc1Br	0	5	2.8	4492	-9	8	18
CCCOC(=O)Nc1nnc(CCC)s1	2	2	3.2	21272*	-13	4	7
CCN(CC)C(=O)CSc1nnc(-c2cccs2)n1Cc1ccco1	-4	5	4.0	2479	-21	-4	4
COc1ccc(/C(C)=N/NC(=O)Cc2c(C)nc(C)[nH]c2=O)cc1	·	14	·	2070	-17	·	·
N#Cc1ccc(NC(=O)COC(=O)CCc2nc3ccccc3c(=O)[nH]2)cc1	11	-3	2.0	26617*	-6	-4	5
O=C(CCS(=O)(=O)Cc1ccccc1F)NCCc1ccc(Cl)cc1	6	8	3.8	3773	-10	9	-1
CCOc1ccc2oc(C(=O)NC3CCN(Cc4ccccc4)CC3)c(C)c2c1	-1	3	48	3668	-14	1	7
COc1ccc(CCNS(=O)(=O)c2ccc(Cl)cc2)cc1OC	-7	-3	0.8	3819	-12	-7	-2
O=C(CSc1nnc(CNC(=O)c2ccco2)o1)NC1CCCC1	0	3	-0.3	4663	1	·	·
O=C(COc1ccccc1)N1CCN(C(=O)c2ccccc2F)CC1	7	-4	2.0	3457	-17	-6	1
COC(=O)CC(=O)CSc1nc2c(cc1C#N)CCCCC2	-10	-3	7.9	9226	-20	5	4
CCOCCCNc1c(CC)c(C)c(C#N)c2nc3ccccc3n12	-9	-11	3.2	3581	-14	8	2
Cc1cc(C)nc(NS(=O)(=O)c2ccc(NC(=O)CSc3ncn[nH]3)cc2)n1	5	5	3.9	4706	-29	0	3

The listing continues.
SMILES	ugtP null kill	BJeLR viability	Sa RN4220 lethal	Autofluor counter	PrP 5UTR inh	Mtb hypoxia inh	Mtb hypoxia inh growth
Cc1ccc(CNC(=O)c2cc3ccccc3oc2=O)cc1	2	-11	1.5	6063	-16	-6	1
CC(=O)OCCCN1c2ccccc2Nc2nnc(-c3ccccc3)cc21	-5	5	4.5	2293	-115	·	·
COc1cccc(/C=C2\SC(=S)N(C(C)C(=O)NC3C=CS(=O)(=O)C3)C2=O)c1 (configuration not stated)	3	-4	6.9	5596	-9	2	4
O=C(O)CSCC(=O)NCc1ccccc1Cl	0	9	1.5	2021	2	15	0
CN(C)C(=O)On1c(-c2ccccc2)nc2ccc(Cl)cc21	-5	-2	-19	2346	-9	·	·
Cc1ccc(NC(=O)Cc2ccccc2Cl)cc1S(=O)(=O)N(C)C	3	-2	11	2737	2	10	2
O=S(=O)(Cc1ccccc1)N1CCc2ccccc2C1	3	-2	3.7	26161*	1	13	6
COc1ccc(CNc2ncc(-c3ccc(Cl)cc3)n2C)c(OC)c1OC	-4	-6	-1.7	4520	1	-20	-4
Cc1ccc2[nH]c(=O)c(C(c3nnnn3CCc3ccccc3)N3CCOCC3)cc2c1 (configuration not stated)	9	-2	1.5	4356	-2	·	·
CCOC(=O)C1C2COc3cc(OC)ccc3C2N2C(=O)N(c3ccc(OC)cc3)C(=O)[C@]12C (some centres not stated)	-3&5	·	-1.5&5.2	·	·	3&18	8&3
COc1ccc(OC)c(-c2csc(NC(=O)Cc3cccs3)n2)c1	-1	-11	0.9	4295	-3	-12	5
COC(=O)c1c(C(=O)OC)c2ccncn2c1Cl	3	-5	0.9	2259	-10	·	·
O=c1c([N+](=O)[O-])cccn1Cc1cccc(Br)c1	12	1	5.0	3533	-24	4	-4
O=C(Oc1cccnc1)c1ccccc1[N+](=O)[O-]	4	0	2.9	2285	-10	7	6
Cc1cccc(NC(=O)COc2cccc3c2CCN(Cc2ccccc2)C3=O)c1C	-4	-24	4.2	2547	-9	10	4
O=C(O)c1ccccc1OCc1ccccc1Br	19	4	10.0	3984	-9	8	3
Cc1ncc([N+](=O)[O-])n1CC(=O)Nc1ccccc1	5	12	5.6	5191	-2	8	6
Cn1cc([N+](=O)[O-])c(C(=O)NCc2ccco2)n1	4	-19	16	3300	1	12	2
OCC[n+]1c2ccccc2nc2ccc(N3CCOCC3)cc21	4	19	2.0	3981	·	-3	-5
COc1cccc(/C=N/n2c(=S)n(C)c3ccccc32)c1OC	·	-14	·	5970	-22	·	·
CCOC(=O)Nc1ccc(N2CCOCC2)c(S(=O)(=O)N2CCOCC2)c1	5	1	-1.5	6072	-7	3	-1
O=C(O)/C=C/C(=O)NCc1ccccc1	6	-3	5.3	8971	-22	7	2
Cc1c(-c2ccccc2Cl)nc2ccccc2c1C(=O)O	11	0	-0.1	2912	1	11	-7
O=C1N(S(=O)(=O)c2ccccc2F)C(=O)C2(CCCC2)N1S(=O)(=O)c1ccccc1F	·	2	·	5724	1	·	·

Entries of single compounds, looked up by structure. Values in the order: ugtP null kill	BJeLR viability	Sa RN4220 lethal	Autofluor counter	PrP 5UTR inh	Mtb hypoxia inh	Mtb hypoxia inh growth
OCC[n+]1c2ccccc2nc2ccc(N3CCOCC3)cc21 is listed with 4	19	2.0	3981	·	-3	-5
Cc1cccc(NC(=O)COc2cccc3c2CCN(Cc2ccccc2)C3=O)c1C is listed with -4	-24	4.2	2547	-9	10	4
Cc1c(-c2ccccc2Cl)nc2ccccc2c1C(=O)O is listed with 11	0	-0.1	2912	1	11	-7

(continued)
SMILES	ugtP null kill	BJeLR viability	Sa RN4220 lethal	Autofluor counter	PrP 5UTR inh	Mtb hypoxia inh	Mtb hypoxia inh growth
O=C(CSc1nnc(-c2ccccc2F)n1C1CCCCC1)Nc1cc(C(=O)O)ccc1Cl	1	·	6.4	?	-33	-5	1
CC(C)C(NC(=O)c1cccc(S(=O)(=O)N2CCOCC2)c1)C(=O)NCc1ccc(Cl)cc1 (configuration not stated)	-3	·	2.7	7209	-1	-8	-2
Cc1ccc(C)c(C(C)NC(=O)C2CCCC2)c1 (configuration not stated)	4	-3	4.3	3768	-17	16	5
COc1ccccc1OCCC(=O)Nc1ccc2c(c1)OCO2	6	·	7.3	·	-39	4	6
Nc1cc(N)nc(SCC(=O)NCc2ccc3c(c2)OCO3)n1	-1	·	1.8	5787	-13	-3	-2

Rewritten bar-delimited: entries from further up.
molecule | ugtP null kill | BJeLR viability | Sa RN4220 lethal | Autofluor counter | PrP 5UTR inh | Mtb hypoxia inh | Mtb hypoxia inh growth
COC(=O)CC(=O)CSc1nc2c(cc1C#N)CCCCC2 | -10 | -3 | 7.9 | 9226 | -20 | 5 | 4
O=C(CSc1nnc(-c2ccccc2F)n1C1CCCCC1)Nc1cc(C(=O)O)ccc1Cl | 1 | · | 6.4 | ? | -33 | -5 | 1

Source: PubChem BioAssay (several laboratories)
